Bioassay records from PubChem.
TRPML1 inh: human mucolipin-1 channel inhibition | TRPML1-inducible cells, Ca2+ dye fluorescence, FDSS; hits give low values; inhibition of EC80 agonist-evoked calcium signal | activity change, negative = inhibition, % (test concentration not listed) | hit rate 0.02% among 390,000; in the data active means activity change below about -50%; inconclusive means about -30% to -50%; inactive means above about -30%;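 note: stimulus is agonist 54-4 at its EC80 concentration; % is set by controls: 0 for no effect and ±100 for the full control effect; compound concentration not given in the record; the text of the record puts the active cut at -80%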
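Calcium fluorescence in TRPML1-DL cells induced overnight with Tet: a 110 s read after compound pin addition, then a 110 s antagonist read after challenge with 54-4 at 4 uM final (EC80).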
TRPML1 agonist: human mucolipin-1 channel agonism | Q9GZU1 | TRPML1-expressing cells, Ca2+ dye fluorescence, FDSS; host cell line not named in the record; reference of the full effect not given here | activation, % (no concentration beside the values) | hit rate 0.12% among 410,000; in the data active = activation above about 50%; inconclusive = about 30% to 50%; inactive = below about 30%; note: 0% is about no effect; the text of the record puts the active cut at 80%
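Tetracycline-induced TRPML1-DL cells are seeded and incubated overnight before loading with a no-wash Ca2+ dye and quencher. Agonist activity is taken from the 110 s fluorescence read following compound pin-transfer on an FDSS, before EC80 54-4 challenge.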
Six1-Eya2 inh: inhibitors of human Six1/Eya2 interaction | AlphaScreen GST-Six1/His-Eya2 binding, biochemical; hits give low values; control for the full effect not named in the record | activity change, % (concentration not given with the values) | AID 651725 | hit rate 0.56% among 360,000 | Q15475+O00167; in the data active = activity change below about -65%; inconclusive = about -30% to -65%; inactive = above about -30%; note: % is set by controls: 0 for no effect and ±100 for the full control effect
Target sequence (O00167 whole entry, looked up): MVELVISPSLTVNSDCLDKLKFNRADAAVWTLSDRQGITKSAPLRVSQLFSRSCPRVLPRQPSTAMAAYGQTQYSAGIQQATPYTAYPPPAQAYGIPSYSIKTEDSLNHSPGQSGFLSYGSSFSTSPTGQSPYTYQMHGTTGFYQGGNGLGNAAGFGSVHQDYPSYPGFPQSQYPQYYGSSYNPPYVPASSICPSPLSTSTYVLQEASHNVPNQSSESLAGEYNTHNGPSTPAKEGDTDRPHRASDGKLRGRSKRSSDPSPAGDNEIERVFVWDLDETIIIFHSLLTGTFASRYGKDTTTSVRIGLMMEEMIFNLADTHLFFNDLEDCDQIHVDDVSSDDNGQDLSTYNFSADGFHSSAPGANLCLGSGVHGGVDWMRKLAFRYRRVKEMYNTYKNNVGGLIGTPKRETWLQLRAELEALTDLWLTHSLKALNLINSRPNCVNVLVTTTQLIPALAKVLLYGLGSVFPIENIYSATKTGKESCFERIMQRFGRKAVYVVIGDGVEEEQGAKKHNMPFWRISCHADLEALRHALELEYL
Target sequence (Q15475 whole entry, looked up): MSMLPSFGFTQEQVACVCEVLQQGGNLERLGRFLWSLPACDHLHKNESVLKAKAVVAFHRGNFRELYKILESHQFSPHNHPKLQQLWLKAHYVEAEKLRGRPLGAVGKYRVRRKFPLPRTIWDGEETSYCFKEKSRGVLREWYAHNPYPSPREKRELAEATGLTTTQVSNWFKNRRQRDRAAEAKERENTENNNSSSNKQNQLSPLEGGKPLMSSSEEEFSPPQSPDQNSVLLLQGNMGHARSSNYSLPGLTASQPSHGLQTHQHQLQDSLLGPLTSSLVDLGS
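Six1/Eya2 binding was read as AlphaScreen signal after compounds were pinned into GST-Six1 plus His-tagged Eya2 (5X stock 250/500 nM) in pH 8.0 Tris/NaCl/TCEP buffer, beads added, then incubated 1 h, 37 C, dark.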
PINK1 modulator: changes PINK1 expression. PINK1 immunofluorescence, high-content cytometry, 24 h. Potency, µM (doses to about 76.6 µM), for inactives: at the highest dose activation (PINK1 increase), actives largely listed as activators. hit rate 0.2% among 410,000. AID 624263; active = well fitted activation curve with a large enough effect; inconclusive = small, poorly fitted or top-dose-only effect; inactive = flat fitted curve, though single readings scatter; cell line not stated here;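 note: potency is the fitted concentration of half-maximal effect; % of control where 0% means no effect; nearly all actives have a fitted effect of over 65% in size; a mitochondrial uncoupler was the plate control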
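Measures PINK1 amount and localization on or inside mitochondria by immunofluorescence. Stable cells get compounds at 5 concentrations for 24 hours before fixation and staining; CCCP controls included.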
D2 PAM: positive allosteric modulators of human D2 dopamine receptor | P14416 | DiscoveRx D2 beta-arrestin cells, luminescence, 90 min; 100% = 57 uM dopamine signal | potentiation, % (concentration not given with the values) | hit rate 0.23% among 360,000 | AID 624464; active = potentiation of 50% or more; inconclusive = 30% to 50%; inactive = 30% or less;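 note: compound concentration not given in the record; tested on top of an EC20 dose of dopamine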
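D2 cells co-treated with compound plus 50 nM dopamine (EC20) for 90 min at 37 deg C to detect potentiation. Beta-arrestin recruitment was read as enzyme-fragment luminescence after 1 h at ambient temperature. Full response was set by 57 uM dopamine.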
D2 agonist: human D2 receptor agonism in beta-arrestin assay | DiscoveRx PathHunter D2 beta-arrestin, luminescence, 90 min; 100% = 57 uM dopamine signal | P14416 | hit rate 0.084% among 360,000 | activation, % (no concentration beside the values); in the data active = activation above about 40%; inconclusive = about 15% to 40%; inactive = below about 15%; note: compound concentration not given in the record; the text of the record calls up to 30% inactive
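Agonist mode: compounds alone added to overnight-plated D2 PathHunter cells for 90 min at 37 C, with 57 uM final dopamine (EC100) defining full response. Beta-arrestin recruitment detected by chemiluminescent reagent, read after 1 h at ambient temperature.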
An asterisk follows results filed as active; & = joins results of further samples; [ ] = another dose, or the depositor's remark. Compounds were not picked by outcome, and some 1% of all compounds hit somewhere here.

CC(C)CCNC(=O)CCc1nnc2ccc(N3CCC(C)CC3)nn12 was read as TRPML1 inh 24, TRPML1 agonist -0.3, Six1-Eya2 inh 7, PINK1 modulator 0.3%, D2 PAM 1 and D2 agonist -1.6.
`CCc1nnc(NC(=O)c2ccc(S(=O)(=O)N3CCCc4ccccc43)cc2)o1` gave TRPML1 inh 7, TRPML1 agonist -0.1, Six1-Eya2 inh -7, D2 PAM 20 and D2 agonist 0.5.
`Cn1c(NCc2cccc(Br)c2)nc2ccccc21` gave TRPML1 inh -10, TRPML1 agonist 0.7, Six1-Eya2 inh 10, PINK1 modulator -1.1%, D2 PAM -35 and D2 agonist -0.9.
CC(=O)c1cccc(N(CC(=O)Nc2ccc(S(=O)(=O)N3CCCC3)cc2)S(C)(=O)=O)c1 was read as TRPML1 inh -7, TRPML1 agonist -0.3, Six1-Eya2 inh -3, PINK1 modulator 3.6%, D2 PAM 10 and D2 agonist -2.9.
CCOC(=O)c1sc(NC(=O)c2cccnc2)nc1C was read as TRPML1 inh 0, TRPML1 agonist -0.4, Six1-Eya2 inh 5, PINK1 modulator 1.2%, D2 PAM -7 and D2 agonist -3.7.
`COCCNC(=O)C1Nc2ccc(OC(F)(F)F)cc2C2C=CCC12` (stereo unspecified) gave TRPML1 inh 5, TRPML1 agonist 0.7, Six1-Eya2 inh 3, PINK1 modulator 3.5%, D2 PAM 2 and D2 agonist 0.9.
`O=C1Cc2cc(S(=O)(=O)NCc3ccc(F)cc3)ccc2N1` gave TRPML1 inh 5, TRPML1 agonist 0.0, Six1-Eya2 inh -4, PINK1 modulator 1.3%, D2 PAM -24 and D2 agonist -1.5.
CC(=O)Nc1ccc(NC(=O)c2ccccc2C)cc1 was read as TRPML1 inh 20, TRPML1 agonist 0.3, Six1-Eya2 inh 1, PINK1 modulator -0.3%[38.3 µM], D2 PAM -13 and D2 agonist 0.5.
CCCc1nc2ccccc2c(C(=O)OCC(=O)Nc2ccc(S(=O)(=O)N3CCOCC3)cc2)c1CC was read as TRPML1 inh 5, TRPML1 agonist 0.2, Six1-Eya2 inh -5, PINK1 modulator 5.1%[38.3 µM], D2 PAM -13 and D2 agonist -2.1.
COc1ccc(NC(=O)Nc2nccs2)cc1 was read as TRPML1 inh -17, TRPML1 agonist 0.2, Six1-Eya2 inh 3, PINK1 modulator 15%[38.3 µM], D2 PAM -5 and D2 agonist -0.9.
For CC(C)c1ccccc1NC(=O)CC1(CC(=O)O)CCCC1 the results were TRPML1 inh 3, TRPML1 agonist 1.6, Six1-Eya2 inh 2, PINK1 modulator -1.0%, D2 PAM -3 and D2 agonist -0.4.
CSCC[C@H](NC(=O)OC(C)(C)C)c1nnc(SCC(=O)Nc2c(C)cccc2C)o1 was read as TRPML1 inh -6, TRPML1 agonist -0.6, Six1-Eya2 inh 1, PINK1 modulator 3.8%, D2 PAM -2 and D2 agonist -5.6.
O=C(CCn1cnnn1)Nc1ccc(F)cc1 was read as TRPML1 inh -27&38, TRPML1 agonist 2.0&0.5, Six1-Eya2 inh 10, PINK1 modulator -0.3%&2.3%, D2 PAM -2 and D2 agonist -3.8.
For CCOC(=O)c1sc(NC(=O)/C=C/c2ccc(C(C)C)cc2)c(C(=O)OCC)c1C the results were TRPML1 inh -3, TRPML1 agonist 0.5 and PINK1 modulator 0.9%.
`CN(CCc1ccccn1)C(=O)c1ccc(OC2CCN(CCc3ccccc3)CC2)cc1` gave TRPML1 inh 29, TRPML1 agonist 0.0, Six1-Eya2 inh -1, PINK1 modulator -0.6%, D2 PAM -37 and D2 agonist -4.2.
O=C(COc1ccccc1[N+](=O)[O-])N(C1CCCCC1)C1CCS(=O)(=O)C1 (stereo unspecified) was read as TRPML1 inh -2, TRPML1 agonist -0.9, Six1-Eya2 inh -8, PINK1 modulator -0.4%, D2 PAM -4 and D2 agonist -2.3.
CC(Sc1ccsc1[N+](=O)[O-])C(=O)NCCc1ccc(Cl)cc1 (stereo unspecified) was read as TRPML1 inh -8, TRPML1 agonist 2.1, Six1-Eya2 inh -19, PINK1 modulator 0.3%, D2 PAM -16 and D2 agonist -3.6.
For O=C(NNc1nc2cc3c(cc2s1)OCO3)c1cccc(F)c1 the results were TRPML1 inh 24, TRPML1 agonist -0.3, Six1-Eya2 inh -11, PINK1 modulator 2.3%, D2 PAM 0 and D2 agonist 3.9.
Screening COc1ccc(NC(=O)CN(C)C(=O)/C=C/c2cn(Cc3ccccc3)nc2-c2cccnc2)cc1 returned TRPML1 inh -19, TRPML1 agonist -0.4, Six1-Eya2 inh 3, PINK1 modulator 0.8%, D2 PAM -1 and D2 agonist -3.4.
`CCCCn1nnc(NC(=S)NC(=O)c2cccs2)n1` gave TRPML1 inh 11, TRPML1 agonist -0.4, Six1-Eya2 inh 2, PINK1 modulator 0.3%, D2 PAM -41 and D2 agonist -10.

Reprinted from the part before: 2 entries; new compounds follow.
Screening COc1ccc(NC(=O)CN(C)C(=O)/C=C/c2cn(Cc3ccccc3)nc2-c2cccnc2)cc1 returned TRPML1 inh -19, TRPML1 agonist -0.4, Six1-Eya2 inh 3, PINK1 modulator 0.8%, D2 PAM -1 and D2 agonist -3.4.
`CCCCn1nnc(NC(=S)NC(=O)c2cccs2)n1` gave TRPML1 inh 11, TRPML1 agonist -0.4, Six1-Eya2 inh 2, PINK1 modulator 0.3%, D2 PAM -41 and D2 agonist -10.
O=C(Oc1ccccc1)c1ccccc1 was read as TRPML1 inh 4, TRPML1 agonist 0.0, Six1-Eya2 inh 2, PINK1 modulator 6.5%, D2 PAM -6 and D2 agonist 0.1.
Cc1cc(C(=O)N/N=C/C=C/c2ccccc2)c(C)o1 was read as TRPML1 inh -3, TRPML1 agonist -0.7, Six1-Eya2 inh -9, PINK1 modulator 2.5%, D2 PAM -18 and D2 agonist 0.3.
For c1ccc2c(c1)C(=Nn1cnnc1)c1ccccc1-2 the results were TRPML1 inh -7, TRPML1 agonist 0.1, Six1-Eya2 inh -14, PINK1 modulator 3.7%[38.3 µM], D2 PAM -10 and D2 agonist -0.3.
`O=S(=O)(c1cccc(-c2cn3ccccc3n2)c1)N1CCCC1` gave TRPML1 inh 54, TRPML1 agonist -0.9, Six1-Eya2 inh -7, PINK1 modulator 1.1%, D2 PAM -6 and D2 agonist -4.1.
`CCCCCN(C(=O)CCC(=O)OCc1cccc(F)c1)c1c(N)n(CCCC)c(=O)[nH]c1=O` gave TRPML1 inh 0, TRPML1 agonist -0.8, Six1-Eya2 inh 3, PINK1 modulator 0.1%, D2 PAM -12 and D2 agonist -3.9.
`CN(C(=S)Nc1ccc(F)cc1)C1(c2ccccc2Cl)CCCCC1=O` (stereo unspecified) gave TRPML1 inh 4, TRPML1 agonist -0.1, Six1-Eya2 inh -1, PINK1 modulator 8.0%[38.3 µM], D2 PAM -2 and D2 agonist 0.8.
For OCn1ncn(-c2ccccc2)c1=S the results were TRPML1 inh 33, TRPML1 agonist 0.7, Six1-Eya2 inh 2, PINK1 modulator -0.3%, D2 PAM -24 and D2 agonist -11.
Cc1cc(N)ccc1-c1cc2ccccc2oc1=O was read as TRPML1 inh -4, TRPML1 agonist 0.7, Six1-Eya2 inh -18, PINK1 modulator 2.0%, D2 PAM -5 and D2 agonist 2.9.
`Cc1cc(C(=O)NCc2cccs2)nn1C` gave TRPML1 inh -19, TRPML1 agonist -0.4, Six1-Eya2 inh 10, PINK1 modulator 1.7%, D2 PAM -6 and D2 agonist -18.
`O=C(CCn1c(=O)sc2ccccc21)NCc1ccco1` gave TRPML1 inh -2, TRPML1 agonist 0.0, Six1-Eya2 inh 1, PINK1 modulator -0.5%[38.3 µM], D2 PAM -23 and D2 agonist -9.5.
Screening CCOC(=O)C(CCCCOc1cccc(CC)c1)C(=O)OCC returned TRPML1 inh 5, TRPML1 agonist 0.4, Six1-Eya2 inh 56, PINK1 modulator -0.4%, D2 PAM -4 and D2 agonist -5.6.
COc1ccc(C(C)NC(=S)NCc2ccc(F)cc2)cc1OC (stereo unspecified) was read as TRPML1 inh 14, TRPML1 agonist -0.1, Six1-Eya2 inh -1, PINK1 modulator 1.1%, D2 PAM -24 and D2 agonist -5.3.
Nc1nonc1-n1nnc(C(=O)N/N=C/c2cccnc2)c1CSc1ccc(Cl)cc1 was read as TRPML1 inh 5, TRPML1 agonist -0.2, Six1-Eya2 inh 0, PINK1 modulator 0.5%, D2 PAM 13 and D2 agonist 7.0.
COc1ccc(C(=O)NCCc2nnc(SCC(=O)Nc3ccccc3F)n2C)cc1 was read as TRPML1 inh -18, TRPML1 agonist -0.3, Six1-Eya2 inh -6, PINK1 modulator -0.4%, D2 PAM -7 and D2 agonist -3.8.
`COC(=O)C1CCN(C(=O)CCC2CCCCC2)CC1` gave TRPML1 inh -7, TRPML1 agonist -0.5, Six1-Eya2 inh 0, PINK1 modulator 0.2%, D2 PAM -17 and D2 agonist -2.2.
CCOC(=O)C1C(=O)NC(c2ccccc2)=NC1c1ccccc1 (stereo unspecified) was read as TRPML1 inh 10, TRPML1 agonist 0.5, Six1-Eya2 inh 5, PINK1 modulator -0.1%, D2 PAM -20 and D2 agonist -2.1.
`CN1CCN(S(=O)(=O)c2ccc(CNC(=O)c3ccccc3)s2)CC1` gave TRPML1 inh -18, TRPML1 agonist 0.7, Six1-Eya2 inh 1, PINK1 modulator 0.0%, D2 PAM -16 and D2 agonist -0.1.
Cc1ccc(N2C(=O)c3cccc4c([N+](=O)[O-])ccc(c34)C2=O)c2cccnc12 was read as TRPML1 inh -5, TRPML1 agonist 1.2, Six1-Eya2 inh 1, PINK1 modulator 14%, D2 PAM -12 and D2 agonist -3.1.
Screening O=C(/C=C/c1ccc(F)cc1)NCc1ccco1 returned TRPML1 inh 6, TRPML1 agonist -0.3, Six1-Eya2 inh -10, PINK1 modulator 0.2%, D2 PAM -15 and D2 agonist -2.1.
For Cc1onc(-c2ccccc2)c1C(=O)N1CCCC1 the results were TRPML1 inh -4, TRPML1 agonist -0.4, Six1-Eya2 inh 1, PINK1 modulator -0.3%, D2 PAM -10 and D2 agonist -2.3.
Screening CC1CCCCN1S(=O)(=O)c1cn(C)c(=O)n(C)c1=O (stereo unspecified) returned TRPML1 inh 1, TRPML1 agonist 0.3, Six1-Eya2 inh 2, PINK1 modulator -1.9%, D2 PAM -11 and D2 agonist -2.0.
COc1cc(-n2c(C)nc3cc(C(=O)O)ccc32)cc(OC)c1OC was read as TRPML1 inh -13, TRPML1 agonist -0.7, Six1-Eya2 inh -16, PINK1 modulator 2.2%, D2 PAM -9 and D2 agonist -3.4.
CCc1cccc(NC(=O)CSc2nc(C)cs2)c1 was read as TRPML1 inh 11, TRPML1 agonist -0.3, Six1-Eya2 inh 4, PINK1 modulator -0.6%, D2 PAM -16 and D2 agonist 2.0.
Screening Cc1cc(N2CCCC2)n2nc(C)nc2n1 returned TRPML1 inh 7, TRPML1 agonist -0.8, Six1-Eya2 inh -1, PINK1 modulator -0.5%, D2 PAM 1 and D2 agonist -2.5.
For c1ccc(N2CCN(C3CCSC3)CC2)cc1 (stereo unspecified) the results were TRPML1 inh 16, TRPML1 agonist -0.2, Six1-Eya2 inh -5, PINK1 modulator inconclusive, D2 PAM -18 and D2 agonist 4.2.
